# Bioassay records from PubChem BioAssay.
# Bead autofluor – counter-screen for toxin protease inhibitors: compound fluorescence; compound autofluorescence counterscreen, microsphere flow cytometry; active compounds read high; fluorescence intensity (test concentration not listed); 360,000 compounds, 3.1% hits; AID 624483;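 active = at least 3 SD above the mean of all compounds, about 16000 in these data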;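 note: 100 nL of 1 mM stock went into each well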
# * hit, by the source's call. These rows are one share of the data, so the mix of outcomes need not match the whole.
mol	Bead autofluor
COCCCC1CCN(C(=O)C2CCC(=O)N(CCCc3ccccc3)C2)CC1 (stereo unspecified)	2968
Cn1c(-c2ccccc2)cc(=NNS(C)(=O)=O)c2cc(S(=O)(=O)O)ccc21	3888
COCCNC(=S)N1Cc2ccccc2-n2nncc2C1	3697
CCCCCCCCN1C(=O)[C@H](CC(=O)NCC23CC4CC(CC(C4)C2)C3)C[C@@]2(C(=O)OCC)CCCC=C12	4259
S=C(Nc1ccccc1)Nc1ccccn1	3742
CC1(C)CC(=O)C=C(c2cccc(OC(=O)c3ccc(Br)cc3)c2)C1=O	3823
CS(=O)(=O)Nc1ccc(-c2cccc3nccn23)cc1	3846
C[C@@H]1CN([C@H](C)CO)C(=O)CCCn2cc(nn2)CO[C@H]1CN(C)S(=O)(=O)c1ccccc1	3709
Cc1cc(C)cc(Cn2cc(CN3CC(N4CCN(Cc5ccccc5F)CC4)CS3(=O)=O)nn2)c1 (stereo unspecified)	5688
COc1cccc(CNc2nc3cc(-c4cccc(Cl)c4)sc3c(=O)n2C)c1OC	2868
Nc1nc2ccccc2n1S(=O)(=O)c1ccccc1	2894
COc1ccc2nc(Cl)c(C=O)c(N3CCOCC3)c2c1	3167
CCOC(=O)C1(C)CCCCN1C(=O)c1cccnc1 (stereo unspecified)	2816
CC(=O)NC(c1cccc(F)c1)c1nc(-c2cccc(C(F)(F)F)c2)cs1 (stereo unspecified)	3881
Cc1onc(-c2c(F)cccc2Cl)c1C(=O)Nc1cc2cc([N+](=O)[O-])ccc2oc1=O	5965
C[C@H](CO)N1C[C@H](C)[C@@H](CN(C)S(=O)(=O)c2ccc3c(c2)OCCCO3)OCc2cn(nn2)CCCC1=O	3343
CCN(CC(=O)Nc1ccc(NC(C)=O)cc1)C(=O)C1CC(=O)N(c2ccc3c(c2)OCCO3)C1 (stereo unspecified)	4008
Cc1cn([C@H]2C[C@H](O)[C@@H](CNCc3ccc(CN(C)S(C)(=O)=O)o3)O2)c(=O)[nH]c1=O	3573
O=S(CC(O)c1ccccc1)c1ccccc1 (stereo unspecified)	4065
CN1CCN(C(=O)OC2CC3CC2[C@H]2CCCCN2C3=O)CC1 (stereo partly specified)	5340
COc1cccc(CC(=O)Nc2ccc3c(c2)c(=O)n(C)n3-c2ccc(C(C)(C)C)cc2)c1	3334
CN(C)c1ccc(NC(=O)Nc2nnc([C@H]3C[C@H](O)[C@@H](CO)O3)s2)cc1	3965
CC1(c2nnnn2Cc2ccccc2)CCC(=O)N1CCOc1ccccc1 (stereo unspecified)	4303
CCOC(=O)C1CCCN(C(=O)c2cc(-c3cccs3)oc2C)CC1 (stereo unspecified)	2868
C[C@H](CO)N1C[C@H](C)[C@@H](CN(C)C(=O)Nc2ccccc2)Oc2cc(Br)ccc2S1(=O)=O	3817
CC[C@@H](C)[C@@H](CO)NC(=O)[C@H]1O[C@@H](n2cnc3c(N)ncnc32)[C@H](O)[C@@H]1O	6131
COc1ccc(C=C(C(=O)c2ccccc2)C(=O)c2ccccc2)cc1	6484
CC(=O)Nc1nnc([N+](=O)[O-])s1	3640
COc1ccc(C(O)c2ncc(-c3ccc(Cl)cc3)[nH]2)cc1 (stereo unspecified)	3780
O=C(Nc1ccccc1)c1cc(C2COCCN2C(=O)c2ccccn2)on1 (stereo unspecified)	2888
COc1cc(-c2cc3nc(NCc4cccc(Cl)c4)ccn3n2)cc(OC)c1OC	3454
Cc1ccc(F)c(S(=O)(=O)NC(=O)C2(C)CCN2C(=O)Cc2ccccc2)c1 (stereo unspecified)	5017
CCCCCCCCN1C(=O)[C@H](CC(=O)NCc2cccs2)C[C@@]2(C(=O)OCC)CCCC=C12	5818
O=S1(=O)CC(N2CCN(Cc3ccccc3F)CC2)CN1Cc1cn(Cc2ccc(Cl)cc2)nn1 (stereo unspecified)	5834
COc1ccc(CCCNC(=O)C2Cc3c(-c4cccc(NC(C)=O)c4)ccnc3O2)cc1 (stereo unspecified)	3982
O=C1NC[C@H](CCCCN2C[C@H](Cc3ccc(O)cc3)N(Cc3ccccc3)C(=O)C2=O)N(CCc2ccc(O)cc2)C1=O	5138
OCCc1ccc(NCCc2ccco2)cc1	5999
CNC(=O)C1CN(C(=O)c2nn(Cc3ccccc3)c(=O)c3ccccc23)c2ccccc2O1 (stereo unspecified)	4334
COc1ccc(C(c2nnnn2-c2c(C)cccc2C)N2CCC(n3c(=O)[nH]c4ccccc43)CC2)cc1 (stereo unspecified)	4541
COc1ccc(Cc2c(C(C)(C)C)nc3cc(C)c(Br)c(C)n23)c(C)c1	5669
CCCN1CCN(CCCNC(=O)CN2C(=O)COc3ccc(C(C)(C)C)cc32)CC1	3752
c1ccc(NN(Cc2ccncc2)c2ccccc2)cc1	3674
CCCCn1nnnc1C(c1ccccc1)N1CCN(c2ccc(OC)cc2)CC1 (stereo unspecified)	6496
COc1cc(CNc2ncnc3c2ncn3[C@H]2CN(Cc3cc(OC)c(OC)c(OC)c3)C[C@@H](CO)O2)cc(OC)c1OC	3861
COc1ccc(CNC(=O)OC2CC3CC2[C@H]2CCCCN2C3=O)cc1 (stereo partly specified)	5463
O=[N+]([O-])c1ccc(-c2cn(-c3ccc(Cl)cc3)cn2)cc1	5840
COc1cccc(C(NC(C)=O)c2nc(-c3ccccc3OC)cs2)c1 (stereo unspecified)	3678
CC1(C(=O)NS(=O)(=O)c2ccccc2)CCN1C(=O)Cc1ccc(Cl)cc1Cl (stereo unspecified)	4012
Cc1ccc(Sc2ccc(NC(=O)c3ccc(F)cc3)cc2C#N)cc1	4938
C[C@H]1CN([C@@H](C)CO)S(=O)(=O)c2ccc(Br)cc2O[C@H]1CN(C)C(=O)Cc1ccccc1	3559
C[C@H](CO)N1C[C@H](C)[C@@H](CN(C)S(=O)(=O)c2cccs2)OCc2cnnn2CCCC1=O	3016
C[C@@H]1CN([C@@H](C)CO)C(=O)CCCn2cc(nn2)CO[C@H]1CN(C)C(=O)Oc1ccc2ccccc2c1	3377
CCCc1nc2ccc(C(=O)OC)cn2c1Cc1ccccc1	6309
CN[C@@H](CO)C(=O)NC[C@H]1O[C@@H](n2cc(C)c(=O)[nH]c2=O)C[C@@H]1O	3941
O=C(OCc1ccccc1)N1CCC2CC1c1cc(-c3cc4ccccc4o3)ccc12 (stereo unspecified)	3726
C[C@@H]1CN([C@@H](C)CO)S(=O)(=O)c2ccc(Br)cc2O[C@H]1CN(C)C(=O)c1ccncc1	3544
CC1(C(=O)NS(=O)(=O)Cc2cccc(Cl)c2)CCN1C(=O)Cc1ccc(-c2ccccc2)cc1 (stereo unspecified)	2960
CCCCN(C=O)c1c(CC)nc2c(OCC(=O)C(C)(C)C)cccn12	3547
COc1cc(OC)cc(C2=Cc3ccccc3C(CC(=O)c3ccco3)N2c2ccc(-c3ccc(C(N)=O)cc3)cc2)c1 (stereo unspecified)	4094
Cn1nc(SCc2ccccc2)c(=O)[nH]c1=O	3723

# (list continues)
mol	Bead autofluor
Cc1ccc(S(=O)(=O)N2C[C@H]3N(C(=O)OC(C)C)N(C(=O)OC(C)C)C[C@H](OC(=O)NCc4ccccc4)[C@@]3(O)C2)cc1	4532
CCOc1ccc(-c2cccc(NS(=O)(=O)c3cccc([N+](=O)[O-])c3)c2)nn1	4712
Cc1ccc(CNC(=S)Nc2ccc3c(c2)c(=O)n(C)n3Cc2cccc(C(F)(F)F)c2)cc1	3614
O=S(=O)(c1ccc(NC(=S)NC23CC4CC(CC(C4)C2)C3)cc1)N1CCCCC1	2875
CC1(c2nc3ccccc3[nH]2)c2ccccc2C(=O)N1Cc1ccccn1 (stereo unspecified)	6182
Cc1c(C(=O)Nc2nccs2)oc2ccccc12	3747
OC[C@@H]1CN(Cc2ccc(F)cc2)C[C@H](n2cnc3c(N4CCOCC4)ncnc32)O1	3652
O=C(Nc1cccc2c1CCCC2)c1cc(C2CCCCN2C(=O)OCCF)on1 (stereo unspecified)	4078
C[C@H](CO)N1C[C@H](C)[C@H](CN(C)S(=O)(=O)c2cccs2)Oc2ncc(-c3cc4ccccc4o3)cc2C1=O	4021
CC(OC(=O)c1ccc2c(c1)OCO2)C(=O)NC1CCCCC1 (stereo unspecified)	4028
CC(C)Nc1nc(Nc2ccc(Cl)cc2F)c2sccc2n1	3499
COC(=O)CC1(C(=O)OC)Nc2cc(Cl)c(Cl)cc2S(=O)(=O)N1O (stereo unspecified)	3891
COCCNC(=O)C1(C)CCN(Cc2ccc3ccccc3c2Br)C1 (stereo unspecified)	3438
CN1[C@@H](Cc2ccccc2)COc2cc(N3CCSCC3)ccc2S1(=O)=O	6490
N#CCCN(Cc1ccccc1)C(C(=O)NC1CCCCC1)c1ccnc2ccccc12 (stereo unspecified)	6069
COc1ccc(N2CCN(C(=O)C(=O)c3cn(CC(=O)N4CCCC4)c4ccccc34)CC2)cc1	3508
COc1ccccc1-c1cc2nc(NCCc3ccc(S(N)(=O)=O)cc3)ccn2n1	2807
CC(=O)Nc1cccc(-c2ccnc3c2CC(C(=O)Nc2ccc(Cl)cc2)O3)c1 (stereo unspecified)	3716
CCC(=O)N1CCC(C)(C(=O)Nc2ccc3c(c2)OCCO3)C1 (stereo unspecified)	2980
OC(c1cccc(Cl)c1)c1nc(-c2cc3ccccc3o2)cs1 (stereo unspecified)	3549

# As entered above.
# Reading of `COc1ccccc1-c1cc2nc(NCCc3ccc(S(N)(=O)=O)cc3)ccn2n1` under Bead autofluor: 2807
# Reading of `OC(c1cccc(Cl)c1)c1nc(-c2cc3ccccc3o2)cs1` (stereo unspecified) under Bead autofluor: 3549
# Reading of `O=C(Nc1cccc2c1CCCC2)c1cc(C2CCCCN2C(=O)OCCF)on1` (stereo unspecified) under Bead autofluor: 4078
# Reading of `CN1[C@@H](Cc2ccccc2)COc2cc(N3CCSCC3)ccc2S1(=O)=O` under Bead autofluor: 6490
# Reading of `COCCNC(=O)C1(C)CCN(Cc2ccc3ccccc3c2Br)C1` (stereo unspecified) under Bead autofluor: 3438
# Reading of `O=S(=O)(c1ccc(NC(=S)NC23CC4CC(CC(C4)C2)C3)cc1)N1CCCCC1` under Bead autofluor: 2875

# Two entries from above in another layout:
CCCN1CCN(CCCNC(=O)CN2C(=O)COc3ccc(C(C)(C)C)cc32)CC1
  Bead autofluor: 3752

Cc1cc(C)cc(Cn2cc(CN3CC(N4CCN(Cc5ccccc5F)CC4)CS3(=O)=O)nn2)c1 (stereo unspecified)
  Bead autofluor: 5688

# (listing goes on)
mol	Bead autofluor
C[C@H](CO)N1C[C@H](C)[C@@H](CN(C)C(=O)Nc2ccccc2)Oc2ncc(-c3ccc(C#N)cc3)cc2C1=O	3449
COCCN(C(=O)CSc1nnc(-c2cccc(Cl)c2)n1N)c1c(N)n(CC(C)C)c(=O)[nH]c1=O	2940
Clc1ccccc1-c1cc2nc(NCCCn3ccnc3)ccn2n1	3097
C[C@H](CO)N1C[C@H](C)[C@@H](CN(C)C(=O)Cc2ccccc2)OCCCC[C@H](C)Oc2ccc(NC(=O)NC3CCCCC3)cc2C1=O	3916
COCCNC(=O)C1CCCN(C(=O)c2ccc(OC)c(F)c2)CC1 (stereo unspecified)	3930
COc1ccc(C(C)(O)c2nc(-c3ccc4c(c3)OCO4)cs2)cc1 (stereo unspecified)	3553
CC(=O)Nc1cc(-c2ccc(F)cc2)cn2c(-c3ccc(F)c(Cl)c3)cnc12	3881
CC(C)NC(=O)CN1CCN(C(c2cc3ccccc3o2)c2nnnn2C(C)(C)C)CC1 (stereo unspecified)	5431
CC1=C(C(=O)N(C(C)C)C(C)C)CC(CC(=O)NCCCCc2ccccc2)C(=O)N1Cc1ccccc1 (stereo unspecified)	4347
CCOC1=C2[C@@H](CN(S(=O)(=O)c3ccccc3C)[C@H]2c2ccc(Cl)cc2)[C@H]2C(=O)N(c3ccccc3)C(=O)[C@H]2C1	6399
Cc1ccc(S(=O)(=O)N2CC3(O)CN(C(=O)OC(C)C)N(C(=O)OC(C)C)CC3(OC(=O)NCc3ccccc3F)C2)cc1 (stereo unspecified)	3767
Cc1ccc(OC2CCN(C(=O)[C@H]3O[C@@H](n4ccc(=O)[nH]c4=O)[C@H](O)[C@@H]3O)CC2)cc1	5660
CCCCNC(=O)C1(C)CCN1C(=O)c1cc(-c2cccs2)oc1C (stereo unspecified)	3957
Cc1ccc(F)cc1C(=O)N1CCCC(c2cc(C(=O)Nc3ccccc3)no2)C1 (stereo unspecified)	3435
OC[C@@H]1CN(Cc2ccc(Cl)cc2)C[C@H](n2cnc3c(N4CCCC4)ncnc32)O1	3588
COc1ccc(-c2nc3ccc(C)cn3c2CC(C)(C)C)cc1OC	4828
CC(C)[C@@H](C(=O)N[C@@H](CCc1ccc(O)cc1)C(=O)O)N(C)C(=O)[C@H](CO)NC(=O)[C@@H](O)[C@H](N)CCCCCCCCl	4754
COc1cccc(-c2cc3nc(NCc4ccc5occc5c4)n(C)c(=O)c3s2)c1	4076
OC[C@@H]1CN(Cc2ccco2)C[C@H](n2cnc3c(NCc4ccc(F)cc4)ncnc32)O1	3735
CCC(C)[C@H](NC(=O)[C@@H]1Cc2ccccc2CN1)C(=O)NCc1ccc(C)cc1 (stereo partly specified)	3802
Cc1cc2oc(C(=O)NCC(c3ccco3)N3CCCC3)c(C)c2cc1C (stereo unspecified)	3524
CCN1CCN(S(=O)(=O)c2ccc(Cl)c(C(=O)N(C)C3CCCCC3)c2)CC1	3056
COc1ccc(C(C)(O)c2nc(-c3cccs3)cs2)cc1 (stereo unspecified)	4010
COc1ccc(-n2c(-c3ccc(Cl)cc3)n[nH]c2=S)c(OC)c1	3924
OC(c1ccccc1)(c1ccccc1)C1CCN(CCCOc2ccccc2Cl)CC1	6133
COc1cccc(CNC(=O)[C@@H]2CCCN2C(=O)[C@H]2CCCCN2C(=O)OC(C)(C)C)c1	6303
Cc1ccc(-c2nc3cc(C)c(Br)c(C)n3c2Cc2cccc(F)c2)cc1	6035
COc1ccc(CNC(=O)[C@@H](Cc2ccccc2)NC(=O)CC[C@H]2O[C@@H](n3ccc(=O)[nH]c3=O)[C@H](O)[C@@H]2O)cc1	4368
O=C(CC[C@H]1O[C@@H](n2ccc(=O)[nH]c2=O)[C@H](O)[C@@H]1O)NCC(c1ccccc1)c1ccccc1	5992
